Screens: PubChem, National Center for Advancing Translational Sciences (NCATS)
GALK inh = qHTS Assay for Inhibitors of Human Galactokinase (GALK); 270,000 compounds, 0.007% hits; P51570; Potency, µM (titrated, usually from 57.5 µM), for inactives: top-dose activity change, negative = inhibition, hits mostly inhibitors; Purified GALK, Kinase-Glo residual ATP luminescence; also: potency is read from the fitted curve at half-maximal effect; % is scaled to controls: 0 for no effect and ±100 for the full control effect
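Kinase-Glo Plus luminescence measured ATP left after a 1 h room-temperature reaction. The reaction used 5 nM GALK, 100 uM galactose and 35 uM ATP at pH 8.0 (20 mM HEPES, 5 mM MgCl2, 60 mM NaCl, 1 mM DTT, 0.01% BSA).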
MBNL1 CUG block = qHTS Assay for Inhibitors of MBNL1-poly(CUG) RNA binding | 280,000 compounds, 0.036% hits | AID 2675, 2010 | TR-FRET MBNL1-His/biotin-(CUG)12 binding, 665/545 ratio | Potency, µM (top dose mostly 57.5 µM), for inactives: top-dose activity change, negative = inhibition, most hits filed as inhibitors; active = well fitted inhibition curve with a large enough effect in the signal ratio, with a control signal flat, not every such curve was filed as active; inconclusive = small, poorly fitted or top-dose-only effect, or effect the other way, or a change in a side signal; inactive = no such curve, though single readings can be large or run the other way; the % refers to the signal ratio; also: potency is read from the fitted curve at half-maximal effect; % is scaled to controls: 0 for no effect and ±100 for the full control effect
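Inhibition of protein-RNA binding appears as loss of TR-FRET between terbium anti-His antibody on MBNL1-His and streptavidin-XL665 on biotin-(CUG)12. Activity is normalized to buffer-only and uninhibited-complex controls.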
Eya2 phos inh = qHTS Assay for Inhibitors of the Phosphatase Activity of Eya2. Protein phosphatase EYA2 (Homo sapiens), O00167. recombinant Eya2, OMFP fluorescence dephosphorylation (OMFP is methylfluorescein phosphate). Potency, µM (doses to about 76.9 µM), for inactives: at the highest dose activity, negative = inhibition, most hits filed as inhibitors. 330,000 compounds, 0.006% hits; also: potency is read from the fitted curve at half-maximal effect; % is scaled to controls: 0 for no effect and ±100 for the full control effect
Target sequence (O00167 whole entry, looked up): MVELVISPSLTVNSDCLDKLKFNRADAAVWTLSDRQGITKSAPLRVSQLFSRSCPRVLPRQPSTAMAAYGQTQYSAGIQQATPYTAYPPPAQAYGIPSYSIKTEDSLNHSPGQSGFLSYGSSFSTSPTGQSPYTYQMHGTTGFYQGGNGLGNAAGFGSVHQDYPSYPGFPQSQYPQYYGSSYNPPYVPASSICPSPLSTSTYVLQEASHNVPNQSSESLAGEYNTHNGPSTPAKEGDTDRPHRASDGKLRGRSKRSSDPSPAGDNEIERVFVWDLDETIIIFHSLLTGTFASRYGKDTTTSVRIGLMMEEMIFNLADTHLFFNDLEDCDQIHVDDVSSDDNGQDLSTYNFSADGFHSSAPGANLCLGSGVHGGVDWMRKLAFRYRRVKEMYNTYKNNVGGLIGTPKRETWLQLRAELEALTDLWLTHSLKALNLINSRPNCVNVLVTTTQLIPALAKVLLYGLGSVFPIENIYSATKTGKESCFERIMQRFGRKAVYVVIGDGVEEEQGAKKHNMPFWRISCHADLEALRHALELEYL
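Eya2 (0.2 uM) preincubated 10 min at ambient with compound, then OMFP substrate added at 50 uM; 10 min reaction in 50 mM HEPES pH 7.5, 50 mM NaCl, 5 uM MgCl2, 0.05% BSA, 1 mM DTT. Fluorescence read at Ex 485/Em 525 nm.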
USP2a block = qHTS Assay for Inhibitors of Ubiquitin-specific Protease USP2a Using CHOP2 as the Reporter; Potency, µM (series often up to 38.3 µM), for inactives: at the highest dose activity change, negative = inhibition, most hits filed as inhibitors; USP2 core, Ub-CHOP2 coupled fluorogenic reporter, 485/531; Ubiquitin carboxyl-terminal hydrolase 2 (Homo sapiens), O75604; AID 463254, 2010; 330,000 compounds, 0.01% hits;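 also: potency is read from the fitted curve at half-maximal effect; plate controls were DMSO wells for no effect and full inhibition by NEM control for full effect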
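Deubiquitinase activity read as fluorescence (485/531 nm) after Ub-CHOP2 cleavage activates the enterokinase reporter on its substrate; USP2 core 10nM, Ub-CHOP2 and substrate 25nM each, 30min compound preincubation then 60min RT; data normalized to NEM, curves fitted.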
TSHR antag = Antagonists of the Thyroid Stimulating Hormone Receptor: HTS campaign; TSHR-expressing cells, TSH-stimulated cAMP HTRF, 2 h; stronger effect = lower value; activity change, negative = inhibition, % at 11.5 µM; 330,000 compounds, 0.2% hits; Thyrotropin receptor (Homo sapiens), P16473;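 active = activity change below a set negative limit, meaning inhibition stronger than a set level, cut at about -70% in these data; inconclusive = activity change between two set negative limits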; also: % is scaled to controls: 0 for no effect and ±100 for the full control effect
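Freshly harvested TSHR cells receive pin-tooled compound, then EC80 TSH at 4nM final. After 2 hours at 37 deg C, antibody in lysis buffer and cAMP-d2 are added; 30 minutes at ambient temperature precede the HTRF read.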
Chronic BCR inh = qHTS Assay to Find Inhibitors of Chronic Active B-Cell Receptor Signaling; Potency, µM (titrated, usually from 46.1 µM), for the others: at the top dose ratio change, negative = lower green/red ratio, most hits filed as inhibitors; ABC-DLBCL IkBa-CBG/CBR reporter, luminescence ratio, 4 h; 340,000 compounds, 0.05% hits; AID 493014, 2011; active = well fitted inhibition curve with a large enough effect in the signal ratio, with a control signal flat, not every such curve was filed as active; inconclusive = small, poorly fitted or top-dose-only effect, or effect the other way, or a change in a side signal; the % refers to the signal ratio;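 also: potency is read from the fitted curve at half-maximal effect; plate controls were basal doxycycline-induced cells for no effect and cells given 10 µM MG132 for full effect; MG132 reads +100%, hits lower the ratio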
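Doxycycline induced both beetle luciferases in TMD8 lymphoma cells; IKK-driven degradation limits the IkappaBalpha-fused green signal, while red luminescence normalises for cell number and nonspecific effects. Compounds tested up to 46 uM, 4 hrs.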
Mito fusion yeast = qHTS Assay for Small Molecule Inhibitors of Mitochondrial Division or Activators of Mitochondrial Fusion; 320,000 compounds, 0.23% hits; AID 485298, 2010; S. cerevisiae fusion-defective mutant growth rescue, CellTiterGlo 48 h; Potency, µM (top dose mostly 46.1 µM), for the others: at the highest dose growth rescue (activation), most hits filed as activators;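 also: potency is read from the fitted curve at half-maximal effect; % of control where 0% means no effect; nearly all actives have a fitted effect of over 45% in size; temperature-sensitive fusion mutants such as fzo1-1 at 37 °C on non-fermentable ethanol glycerol medium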
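Growth-rescue viability read-out: after 48 h at the non-permissive 37C in glycerol/ethanol YPEG, yeast mitochondrial fusion mutants are measured by CellTiterGlo luminescence; compounds (23 nl pinned per well) restoring growth score as division inhibitors or fusion activators.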
S-ASM inh = Inhibitors of Secretory Acid Sphingomyelinase (S-ASM): qHTS; AID 504937, 2011; Potency, µM (top dose mostly 57.5 µM), for inactives: at the highest dose activity change, negative = inhibition, most hits filed as inhibitors; 340,000 compounds, 0.006% hits; placental ASM, HMU-PC fluorogenic substrate, 60 min; also: potency is read from the fitted curve at half-maximal effect
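Fluorogenic HMU-PC substrate (9 uM final) is turned over by placental ASM in 60 min at 37 C after a 10 min compound preincubation. Reaction ended by alkaline stop (pH 10), with fluorescence read at 386/447 nm.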
PKM2 act = qHTS Assay for Activators of Human Muscle isoform 2 Pyruvate Kinase; Pyruvate kinase PKM (Homo sapiens), P14618; purified PKM2, Kinase-Glo ATP luminescence, activation; response scale: 0% is enzyme alone, no compound; Potency, µM (titrated, usually from 57.5 µM), inactives show top-dose activation, most hits filed as activators; 260,000 compounds, 0.34% hits; AID 1631, 2009; also: potency is read from the fitted curve at half-maximal effect; % is scaled to controls: 0 for no effect and ±100 for the full control effect; nearly all actives have a fitted effect of over 55% in size
Target sequence (P14618 whole entry, looked up, canonical isoform): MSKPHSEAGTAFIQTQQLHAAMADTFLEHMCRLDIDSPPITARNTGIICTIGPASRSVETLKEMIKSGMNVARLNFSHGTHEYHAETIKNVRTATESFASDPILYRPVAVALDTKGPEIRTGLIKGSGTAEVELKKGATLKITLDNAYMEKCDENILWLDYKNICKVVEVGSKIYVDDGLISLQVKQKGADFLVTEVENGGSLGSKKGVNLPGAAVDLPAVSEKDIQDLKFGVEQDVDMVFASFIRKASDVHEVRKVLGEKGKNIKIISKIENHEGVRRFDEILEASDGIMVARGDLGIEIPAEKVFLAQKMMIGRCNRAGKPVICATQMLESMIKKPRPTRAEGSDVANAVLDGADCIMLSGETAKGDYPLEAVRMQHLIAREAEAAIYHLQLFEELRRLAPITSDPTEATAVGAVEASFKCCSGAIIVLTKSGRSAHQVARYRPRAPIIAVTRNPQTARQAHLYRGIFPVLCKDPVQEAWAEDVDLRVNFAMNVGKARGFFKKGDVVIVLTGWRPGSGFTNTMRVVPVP
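Kinase-Glo luminescence reports ATP generated from ADP (0.1 mM) and PEP (0.5 mM) by purified hPK-M2 after 1 h at room temperature, pH 7.2 imidazole buffer; intermediate enzyme activity allows detecting inhibitors and activators.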
hERG WT inh = qHTS for Inhibitors of KCHN2 3.1: Wildtype qHTS. 340,000 compounds, 0.37% hits. activity change, % at 1.84 µM. AID 720551, 2013. U2OS, BacMam KCNH2, thallium flux FluxOr; stronger effect = lower value. Voltage-gated inwardly rectifying potassium channel KCNH2 (Homo sapiens), Q12809;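 active = maximum activity change below -70%; inconclusive = maximum activity change between -70% and -50%; inactive = maximum activity change above -50%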; also: % is scaled to controls: 0 for no effect and ±100 for the full control effect
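U2OS cells transduced with wild-type KCNH2 virus are loaded with FluxOr dye for 45 min, and thallium flux is measured in kinetic reads before and after stimulation buffer. Rate constants are normalized to DMSO controls.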
An asterisk follows results filed as active; ? = inconclusive; . = no result given. Unless noted, calls follow the shape of the dose curve; as a rule, active = well fitted curve in the direction sought with a large enough effect; inconclusive = small, poorly fitted or top-dose-only effect, or another doubt; inactive = no such curve, though single readings can be large; an effect the other way counts as inactive or inconclusive. A portion of the library. The share of hits here may be higher or lower than overall.

Below each SMILES: GALK inh	MBNL1 CUG block	Eya2 phos inh	USP2a block	TSHR antag	Chronic BCR inh	Mito fusion yeast	S-ASM inh	PKM2 act	hERG WT inh
COc1ccc(C(=O)Nc2cccnc2)cc1
  0%	0%	-33%	1%	18	9%	-4%	4%	3%	-3
CCN(CC)c1nc2ccccc2c(N)c1-c1ccccc1
  -1%	-10%	9%	-2%	-6	?	5%	3%	-1%	34
CCC(=O)Nc1nc2ccccc2n1CCN(C)C
  0%	1%	10%	3%	1	8%	1%	1%	-4%	8
CC(C)c1cc(C(=O)Nc2cc(Cl)ccc2O)no1
  0%	10%	-4%	-2%	5	-2%	5%	0%	-5%	-23
COc1ccc(/C=C2/Sc3ccc(C(=O)NCCN4CCCCCC4)cc3NC2=O)cc1
  10%	?	-13%	-7%	4	10%	-3%	-1%	.	22
O=C(NC(NC(=S)Nc1ccc(Cl)cc1)C(Cl)(Cl)Cl)c1ccco1 (stereo unspecified)
  .	2%	14%	1%	3	?	-1%	-7%	4%	-5
COc1ccccc1OCC(=O)Nc1ccc2c(c1)OCCO2
  6%	-2%	12%	2%	-3	0%	1%	1%	.	5
CC(C)Cc1cc(C(=O)Nc2cc(Br)ccc2O)no1
  -2%	-2%	-18%	4%	-24	?	?	-16%	3%	-12
CCCCn1c(NCc2ccccc2NS(=O)(=O)c2ccc(C)cc2)nc2ccccc21
  -4%	-6%	-9%	1%	9	1%	3%	-1%	2%	1
O=C1CC(c2ccccc2)=NN1c1nc(-c2ccccc2)cs1
  -2%	-2%	5%	-1%	-6	4%	-4%	3%	-1%	-24
Cc1cccc2cc(CN(Cc3ccco3)C(=O)NC3CCCCC3)c(=O)[nH]c12
  0%	-3%	-1%	-1%	-5	?	15%	-1%	12%	-2
COC(=O)c1ccc(C2CC(=O)NC3=C2C(=O)CCC3)cc1 (stereo unspecified)
  -1%	-6%	11%	0%	5	-2%	21%	2%	-3%	2
COC(=O)CN1C(=O)N/C(=C/c2ccc(C)o2)C1=O
  5%	?	-27%	5%	-2	-24%	20%	19%	?	-1
CCOc1ccccc1OCCn1nnc2ccccc21
  0%	-14%	-23%	2%	3	?	1%	2%	4%	-4
COc1ccc(CCNc2nc3ccc(C)cc3n3cnnc23)cc1OC
  0%	-8%	21%	-1%	2	-3%	-1%	-6%	.	13
COc1ccc(Br)cc1CN1CCN(C(=O)c2ccco2)CC1
  0%	-6%	3%	0%	-2	0%	11%	-4%	.	7
Cc1cc(N2CCN(c3ccc(C(F)(F)F)cc3[N+](=O)[O-])CC2)c2ccccc2n1
  0%	?	-14%	-8%	-7	?	-7%	-19%	-1%	-98*
Cc1cc(-c2csc(NC(=O)c3ccccc3C(F)(F)F)n2)c(C)n1Cc1ccccc1
  -3%	26%	0%	1%	10	-2%	-4%	1%	0%	6
O=C(N/N=C/c1c[nH]c2ccccc12)c1ccn(Cc2ccc(Cl)cc2Cl)n1
  3%	-1%	-15%	1%	-16	?	-1%	-9%	5%	-2
CCOC(=O)c1cnc2ccc(Cl)cc2c1NCCN(C)C
  1%	?	-4%	-2%	-2	7%	-4%	5%	-2%	-3
Cc1ccc(N(CC(=O)N2CCOCC2)S(C)(=O)=O)cc1
  1%	-4%	2%	-1%	-15	3%	6%	0%	0%	-21
Cc1cccc(Cn2c(=O)n(-c3ccc(CC(=O)NCc4ccco4)cc3)c(=O)c3sccc32)c1
  3%	15%	-5%	0%	38	5µM*	-3%	-4%	1%	6
COc1ccccc1NC(=S)N1CC(C)(C)C1=O
  0%	0%	-7%	4%	10	3%	-6%	-1%	.	-5
CCOc1cc(NC(=O)C2CCCO2)c(OCC)cc1NC(C)=O (stereo unspecified)
  0%	1%	6%	-1%	13	-19%	5%	9%	14%	-7
CCN(CC)c1ccc(C(=O)c2ccccc2C(=O)O)c(O)c1
  -2%	2%	2%	2%	25	?	-1%	-3%	-20%	-9
CCCc1nc2cc3c(cc2[nH]1)n(C)c(=O)n3C
  1%	4%	-8%	5%	-1	-2%	1%	0%	.	-2
NC(=O)NCCCC(NC(=O)c1ccc(C#CC2(O)CCCCC2)cc1)C(=O)O (stereo unspecified)
  0%	-1%	-19%	0%	-2	0%	-1%	0%	1%	-4
CCCc1cc(C(=O)Nc2cc(Br)ccc2O)no1
  1%	2%	-2%	2%	-9	?	17%	-1%	0%	15
CCn1c(CCNC(=O)c2ccc(Cl)c(Cl)c2)nnc1SCCOc1ccc(OC)cc1
  -1%	1%	-13%	1%	1	-9%	-1%	-15%	-3%	31
Cc1ccc(NC(=O)Cn2nnc(C(=O)NCc3cccs3)c2N)cc1F
  1%	-4%	6%	7%	3	0%	-1%	-2%	.	-11
O=C(COc1ccc(S(=O)(=O)N2CCOCC2)cc1)Nc1ccc2c(c1)OCCO2
  0%	-4%	10%	2%	6	3%	-8%	0%	-11%	0
Cn1c(=O)[nH]c(=O)c2c1nc(N1CCN(CCO)CC1)n2Cc1ccccc1Cl
  -4%	-2%	-1%	3%	-43	?	4%	6%	-2%	0
c1ccc2c(c1)CCCN2Cc1nnc2n1CCCCC2
  10%	9%	-6%	1%	-3	-1%	1%	8%	-5%	0
O=C(/C=C/c1ccccc1)NC(NC(=S)Nc1ccc(Cl)cc1)C(Cl)(Cl)Cl (stereo unspecified)
  -2%	6%	32%	0%	-26	?	2%	-3%	-2%	-8
O=C(Nc1ccc(-c2csc(-c3ccccc3)n2)cc1)c1ccccc1Cl
  -3%	-12%	-6%	-4%	30	?	0%	-3%	2%	5
NNc1nc2ccccc2c(=O)n1Cc1ccccc1
  2%	1%	-7%	0%	5	?	2%	8%	-26%	-7
O=C1OC(NCc2cccnc2)(c2ccc(Cl)cc2)c2ccccc21 (stereo unspecified)
  1%	-3%	0%	0%	-15	-14%	0%	3%	-1%	2
CSc1cc(C)n(-c2ccccc2)c(=S)c1C(C)=O
  0%	2%	-1%	3%	-10	?	0%	-3%	-2%	-1
CC(OC(=O)CCc1c[nH]c2ccccc12)C(=O)c1ccccc1 (stereo unspecified)
  -2%	4%	-9%	0%	-19	10%	8%	-6%	-5%	11
CC(=O)Nc1cccc(C(=O)OCC(=O)NC(C)c2ccc(F)cc2)c1 (stereo unspecified)
  4%	17%	-15%	1%	2	?	-1%	8%	1%	-38
COC(=O)C1=C(C)Nc2nnnn2C1c1cccnc1 (stereo unspecified)
  1%	-8%	-21%	-2%	2	?	1%	9%	-1%	-2
COc1ccccc1CN1CC(C(=O)NCC2CCCO2)CC1=O (stereo unspecified)
  -1%	-5%	-10%	0%	-5	-7%	1%	1%	0%	5
O=C(NN1CCN(Cc2ccccc2)CC1)c1ccc(N2CCOCC2)c([N+](=O)[O-])c1
  0%	?	-6%	-1%	6	0%	-4%	-4%	6%	3
COc1ccc2c(CC(=O)N3CCc4cc(OC)c(OC)cc4C3)coc2c1
  10%	-7%	-24%	6%	1	-2%	10%	-1%	3%	-10
O=C(Nc1ccccc1)C1=C(O)CC(c2ccco2)CC1=Nc1ccccc1 (stereo unspecified)
  -1%	-3%	10%	4%	3	-7%	3%	-2%	1%	-1
